VDR inh: vitamin D3 receptor (human) inhibition; AID 504847; VDR-SRC2-3 peptide fluorescence polarization, 2 h; Potency, µM, for the others: max response, negative = inhibition, actives largely listed as inhibitors; hit rate 0.93% among 400,000; active = well fitted inhibition curve with a large enough effect; inconclusive = small, poorly fitted or top-dose-only effect, or another doubt; inactive = no such curve, though single readings can be large or run the other way; note: series mostly up to about 120 µM
Target sequence (P11473 whole entry, looked up): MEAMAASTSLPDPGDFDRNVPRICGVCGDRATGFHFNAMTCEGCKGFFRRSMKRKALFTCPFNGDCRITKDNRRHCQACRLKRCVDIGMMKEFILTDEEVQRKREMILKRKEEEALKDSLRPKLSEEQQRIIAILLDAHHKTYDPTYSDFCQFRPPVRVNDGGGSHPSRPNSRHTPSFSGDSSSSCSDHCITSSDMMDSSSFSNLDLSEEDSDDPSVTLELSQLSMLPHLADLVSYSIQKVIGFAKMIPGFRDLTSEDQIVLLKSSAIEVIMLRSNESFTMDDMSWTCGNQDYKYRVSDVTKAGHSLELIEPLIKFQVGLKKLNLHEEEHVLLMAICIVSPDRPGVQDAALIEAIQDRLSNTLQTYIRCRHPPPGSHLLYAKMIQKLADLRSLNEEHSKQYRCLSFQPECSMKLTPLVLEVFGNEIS
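Fluorescence polarization assay of small-molecule disruption of VDR binding to coregulator peptide SRC2-3. Compounds and controls pin-transferred, then read after 2 h incubation at ambient room temperature.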
The depositor's hits bear a star; ? = inconclusive; & = joins results of further samples. % is set by controls: 0 for no effect and ±100 for the full control effect; potency is the fitted concentration of half-maximal effect. A portion of the library; count on the stated rates, not on these rows.

SMILES | VDR inh
CCOCc1cn(CC(=O)c2ccc([N+](=O)[O-])cc2)c(C)nc1=N | 3%
O=C(Nc1nccs1)C1CC(=O)N(c2ccc(F)cc2)C1 (stereo not drawn) | -13%
COc1ccc(CNC(=O)CN(Cc2ccco2)C(=O)CCC(=O)Nc2ccccn2)cc1 | -7%
Fc1cccc(F)c1/C=N/N1CCOCC1 | -3%
N#C/C(=C\N1CCOCC1)S(=O)(=O)c1ccc(Cl)cc1 | 4%
CN(C)c1cncc(C(=O)O)c1 | 4%
Cc1ccc(C)c(OCCCCN2CCNCC2)c1C | 3%
Cc1ccc2c(CC(=O)Nc3ccc(S(=O)(=O)Nc4nc(C)cc(C)n4)cc3)coc2c1 | -5%
CS(=O)(=O)c1ccc2nc(NC(=O)Nc3ccc(Cl)c(Cl)c3)sc2c1 | 7%
CC1CC(C)CN(CCCNC(=O)Cn2ncc3c([nH]c4ccccc43)c2=O)C1 (stereo not drawn) | -12%
CCOc1ccc(CNC(=O)C2CCN(c3nnc(-n4c(C)ccc4C)s3)CC2)cc1 | 5%
CN(CC(=O)Nc1sccc1C(N)=O)S(=O)(=O)c1ccc(Cl)cc1 | 2%
O=S(=O)(c1ccc(-n2cnnn2)cc1)N(C1CCCCC1)C1CCCCC1 | -5%
COc1ccc(-c2cc(=O)c3cc(OC)ccc3o2)cc1 | -5%&5%
CCOc1ccc(C(C)NC(=O)C2CCN(S(=O)(=O)c3ccc(OC)cc3)CC2)cc1OCC (stereo not drawn) | 2%
CCOC(=O)N1CCN(C(=O)COC(=O)CNC(=O)c2ccc(OCC)c(OCC)c2)CC1 | -3%
COc1ccc(N2C(=S)N=C(Nc3cccc(C)c3)C23CCCCC3)cc1 | ?
Cc1ccc(C)c(OC(=O)C2CSC3(C)CCC(=O)N23)c1C (stereo not drawn) | -9%
CCC/C=C1\CCCOC(C(=O)NCc2ccc(C)o2)(C(F)(F)F)C1 (stereo not drawn) | ?
COCCn1cc(C(=O)NCc2cccs2)c2c3ccccc3n(C)c2c1=O | 3%
Cc1cccc(NC(=O)CSc2nnc(Cn3cnc4ccccc43)o2)c1 | 7%
COc1ccc(/C=C/C(=O)c2ccc([N+](=O)[O-])o2)cc1OC | 18µM*
COc1ccc2c(c1)O/C(=C\c1ccccc1C)C2=O | 5%
Cc1ccc(N(Cc2ccc(C(=O)NCC3CCCO3)cc2)S(C)(=O)=O)cc1C (stereo not drawn) | 5%
Cc1cccc(-c2nc(NCCCN3CCOCC3)c3ccccc3n2)c1 | -11%
O=C(C1CCC(Cn2c(=O)[nH]c3ccccc3c2=O)CC1)N1CCN(c2ccccc2)CC1 (stereo not drawn) | ?
O=C(NNC(=O)c1ccc2ccccc2c1)c1cccc(Cl)c1 | -1%
CSc1ccc(/C=C(\NC(=O)c2ccc(C)cc2)C(=O)Nc2cccc(C)c2)cc1 | -10%
CC(=O)c1cccc(NC(=O)CCNS(=O)(=O)c2cccc3nonc23)c1 | 0%
Cc1cc(C)c(S(=O)(=O)c2ccccc2C(C)C)c(=O)[nH]1 | -1%
Cc1ccc(Cn2ccc(=O)c(OCc3ccccc3)c2C)cc1 | 17%
COc1ccc(OC)c(Nc2nc(C)nc3c2oc2ccccc23)c1 | 15%
CCOc1ccc(NC(=O)COC(=O)c2ccc3c(c2)C(=O)N(CCc2ccccc2)C3=O)cc1 | -15%
O=c1c2ccccc2nc(-c2ccco2)n1/N=C/c1ccco1 | -1%
CN(C)CCCN(C(=O)c1ccc2c(c1)CCCC2)c1nc2ccc(F)cc2s1 | 7%
COc1cc2c(cc1/C=C1/NC(=O)N(c3ccccc3)C1=O)OCO2 | -2%
O=C(NCCO)C1(c2ccc(Cl)cc2)CCCC1 | -8%
COc1ccc2oc(-c3ccccc3)c(C(=O)N3CCOCC3)c2c1 | 13%
Cc1cc(Nc2ccc(Br)cc2F)n2ncnc2n1 | 6%
CCOC(=O)c1cc(NC(=O)c2ccc(Cl)cc2)c(=O)n2c1oc1ccc(Cl)cc12 | 2%
COc1cc(C)nc(N2CCCC(C(=O)Nc3cccc(Cl)c3C)C2)n1 (stereo not drawn) | -2%
O=C(COC(=O)Cn1cnc2ccccc21)NCCCc1ccccc1 | -7%
CCCCN(CC)CCNC(=O)c1ccc2c(Cl)c3c(nc2c1)CCC3 | -6%
Cc1cccc(NC(=O)COc2coc(CN3CCN(c4ccccc4)CC3)cc2=O)c1C | -11%
O=C(Nc1ccncc1)C1(c2ccccc2)CCCC1 | 6%
CCOc1cccc(-c2c(C(=O)N/N=C(\C)c3ccncc3)nnn2-c2nonc2N)c1 | -1%
COc1cccc(N(CC(=O)Nc2cccc(F)c2)S(C)(=O)=O)c1 | 21%
CCOC(=O)N1CCN(C(=O)C2CC(=O)N(c3ccc(OC)cc3)C2c2ccc(OC)cc2)CC1 (stereo not drawn) | 3%
CCCN1C(=O)c2cc(C(=O)Nc3ccccc3C)ccc2C1Nc1ccccc1C (stereo not drawn) | -5%
CC(CCc1ccccc1)NS(=O)(=O)c1ccccc1Cl (stereo not drawn) | -4%
CN(C)c1ccc(CNC(=O)CN2C(=O)C3CCCCN3c3ccc(C(=O)N4CCCC4)cc32)cc1 (stereo not drawn) | 4%
Cc1ccc(C(=O)Nc2ccccc2-c2ccccc2)o1 | 15%
O=C(Nc1c(C(=O)O)[nH]c2ccc(F)cc12)c1cccc(C(F)(F)F)c1 | 3%
O=C(Nc1ccc(Cl)c(C(F)(F)F)c1)C1CCCN(S(=O)(=O)c2cnc[nH]2)C1 (stereo not drawn) | 0%
Cc1ccc(NC(=O)N2CCN(c3nnc(C)c4c(C)n(-c5ccccc5)nc34)CC2)c(Cl)c1 | 10%
O=C(COC(=O)CNS(=O)(=O)c1ccc(Br)cc1Cl)Nc1ccc(N2CCOCC2)cc1 | -26%
NC(=O)c1c(NC(=O)CCCC(=O)O)sc2c1CCCCCC2 | ?
CC(C)CCNC(=O)CSc1nc2ccccc2nc1Cc1ccc(Cl)cc1 | 9%
Cc1ccc(C(=O)O/N=C(\c2ccccc2)c2cccnc2)cc1 | -6%
O=C(Nc1ccc(F)cc1F)c1csc(-c2cccs2)n1 | 4%

Among those listed so far, 4 contain a thiophene ring, fused or not.
SMILES | VDR inh
CN(CC(=O)Nc1sccc1C(N)=O)S(=O)(=O)c1ccc(Cl)cc1 | 2%
COCCn1cc(C(=O)NCc2cccs2)c2c3ccccc3n(C)c2c1=O | 3%
NC(=O)c1c(NC(=O)CCCC(=O)O)sc2c1CCCCCC2 | ?
O=C(Nc1ccc(F)cc1F)c1csc(-c2cccs2)n1 | 4%

The listing picks up with the three entries that preceded the break.
SMILES | VDR inh
CC(C)CCNC(=O)CSc1nc2ccccc2nc1Cc1ccc(Cl)cc1 | 9%
Cc1ccc(C(=O)O/N=C(\c2ccccc2)c2cccnc2)cc1 | -6%
O=C(Nc1ccc(F)cc1F)c1csc(-c2cccs2)n1 | 4%
COc1ccc(-c2csc(NC(=O)C3CSC4(C)CCC(=O)N34)n2)cc1 (stereo not drawn) | 8%
COc1ccc(N2CC(C(=O)Nc3ccccc3N3CCCC3)CC2=O)c(OC)c1 (stereo not drawn) | -11%
O=P(O)(CCc1ccncc1)CN1CCCCC1 | -5%
CCN(CC)C(=O)Cn1c(=O)n(Cc2ccc(C(=O)NCc3ccc(C)cc3)cc2)c(=O)c2ccccc21 | 3%
Cc1cc(C)n(-c2ncnc3sc4c(c23)CCCC4)n1 | -16%
Cc1c(C(=O)OCC(=O)N2CCCC2=O)oc2ccccc12 | 28%
CCC(C)(C)n1nnnc1C(c1ccc2ncccc2c1)N1CCN(c2nc3ccccc3s2)CC1 (stereo not drawn) | 11%
COc1ccc(S(=O)(=O)N(CC(=O)N2CCOCC2)Cc2ccccc2)cc1 | -2%
COc1ccc(C2Nc3ccccc3C(=O)N2Cc2ccccc2)cc1CN1CCOCC1 (stereo not drawn) | 15%
Cc1nc2nc(NC(=O)c3ccco3)nn2c(C)c1Cl | 0%
CC(=O)NC1C(Oc2ccc(C=O)cc2)OC(COC(C)=O)C(OC(C)=O)C1OC(C)=O (stereo not drawn) | -14%
CCc1nnc(NC(=O)c2cccc(C(=O)Nc3nnc(CC)s3)n2)s1 | 9%

The final 2 entries of the part above come first, to join the parts:
structure: CC(=O)NC1C(Oc2ccc(C=O)cc2)OC(COC(C)=O)C(OC(C)=O)C1OC(C)=O (stereo not drawn)
  VDR inh: -14%
structure: CCc1nnc(NC(=O)c2cccc(C(=O)Nc3nnc(CC)s3)n2)s1
  VDR inh: 9%
structure: CC(Sc1nnc(Cc2ccccc2)n1C)C(=O)NC1CC1 (stereo not drawn)
  VDR inh: 1%
structure: CCN(CC)S(=O)(=O)c1ccc(N/N=C/c2cc(OC)ccc2O)nc1
  VDR inh: -20%
structure: COc1cc(NC(=S)NC2CC2)c(OC)cc1Cl
  VDR inh: -9%
structure: O=C(CCN1CCOCC1)NC1CCCN(Cc2ccccc2F)C1 (stereo not drawn)
  VDR inh: 0%
structure: COc1ccccc1CN1CCC2(CC1)CCN(C(=O)c1cccn1C)CC2
  VDR inh: 4%
structure: COc1ccccc1C(=O)Nc1cc(-c2ccc(C)cc2)no1
  VDR inh: -6%&-5%
structure: Cc1noc(C)c1S(=O)(=O)N(CC(=O)NCc1ccc(Cl)cc1)c1ccc2c(c1)OCO2
  VDR inh: -6%
structure: N#Cc1c(-c2ccccc2)nc(-c2ccccc2)nc1N1CCOCC1
  VDR inh: -10%
structure: CN(CC1COc2ccccc2O1)C(=O)c1ccc(Cl)c(S(=O)(=O)N2CCCCCC2)c1 (stereo not drawn)
  VDR inh: -3%
structure: CC(=O)Nc1ccc(C(=O)N/N=C(\C)CC(=O)Nc2ccc(OCc3ccccc3)cc2)cc1
  VDR inh: -3%
structure: C[C@@H]1C(NC(=O)c2ccccc2)CC2CC1C2(C)C (stereo partly drawn)
  VDR inh: 0%
structure: CC(C)OC(=O)/C(=C/c1ccc(Br)cc1)NC(=O)c1ccco1
  VDR inh: 11%
structure: CCOc1ccc(CCNC(=O)COC(=O)c2ccc(C)s2)cc1OCC
  VDR inh: -10%
structure: CCCCn1nc2cc(C(=O)NCCc3cccs3)ccc2c1OCC
  VDR inh: -6%
structure: COc1cc(/C=C/C(=O)OCC(=O)Nc2ccc([N+](=O)[O-])cc2)ccc1O
  VDR inh: 1%
structure: CCOC(=O)N1CCN(C(=O)c2ccc(CNS(=O)(=O)c3ccc(NC(C)=O)cc3)cc2)CC1
  VDR inh: -15%
structure: COc1ccc(S(=O)(=O)N(C)C)cc1NC(=O)CSc1ncccn1
  VDR inh: ?
structure: O=C(Nc1ccc(N2CCN(c3ccc(O)cc3)CC2)cc1)Oc1ccccc1
  VDR inh: 1%
structure: C=C(C)[C@]12C[C@@H](C)[C@@]34OC(Cc5ccccc5)(O[C@@H]1[C@@H]3C=C(COC(=O)Cc1cc(OC)c(O)cc1I)C[C@]1(O)C(=O)C(C)=C[C@@H]41)O2
  VDR inh: 3%
structure: Cc1ccccc1OCC(=O)Nc1cc(Cl)ccc1Oc1ccccc1
  VDR inh: -10%
structure: Cc1ccc(CC23CN4CCN(CC(C4)C2O)C3)c(C)c1 (stereo not drawn)
  VDR inh: 1%
structure: Cn1cccc1CC(=O)N/N=C/C=C/c1ccco1
  VDR inh: ?
structure: COc1cc(/C=C2\C(=N)N3N=C(CC(=O)N4CCOCC4)SC3=NC2=O)cc(OC)c1OC
  VDR inh: -18%
structure: CN(C)c1ccc(-c2ccc3ncnc(N(C)Cc4ccco4)c3c2)cc1
  VDR inh: ?
structure: CC1(C)CC(=O)C=C(c2cccc3c2oc2ccccc23)C1
  VDR inh: -1%

structure: COc1ccc(CNC(=O)C2(c3cccs3)CCOCC2)cc1
  VDR inh: 10%
structure: CCC(C)n1nccc1NC(=O)C(C)Cl (stereo not drawn)
  VDR inh: 21%
structure: Cc1noc(C)c1C(=O)Nc1ccc(N(C)C)cc1
  VDR inh: -12%
structure: CCCn1c(NC(=O)c2ccc(C)cc2)nc2ccccc21
  VDR inh: -20%
structure: O=C(OCc1ccccc1)C1=[N+]([O-])OC(C(=O)OCc2ccccc2)C1c1c[nH]c2ccccc12 (stereo not drawn)
  VDR inh: -12%
structure: COc1ccc(N2C3=C(CC4=C2CC(C)(C)CC4=O)C(=O)CC(C)(C)C3)cc1
  VDR inh: -89%
structure: O=C(CNC(=O)C12CC3CC(CC(C3)C1)C2)N1CCN(S(=O)(=O)c2cccs2)CC1
  VDR inh: -8%
structure: COc1ccc(C2/C=C\CN(C(=O)Nc3ccccc3-c3ccccc3)CC(=O)N2Cc2ccc(F)cc2)cc1 (stereo not drawn)
  VDR inh: -12%&-7%
structure: O=C(Nc1ccc2c(c1)[nH]c(=O)c1ccccc12)C(F)(F)F
  VDR inh: -15%
structure: O=C(C=Cc1ccc(Cl)s1)c1ccc(Cl)s1
  VDR inh: ?
structure: O=C(C(c1ccccc1)c1ccccc1)N(Cc1ccco1)C1CCS(=O)(=O)C1 (stereo not drawn)
  VDR inh: 8%
structure: COc1ccc(C(C)n2c(C)c3c(C)nnc(C)c3c2C)cc1 (stereo not drawn)
  VDR inh: -7%&7%
structure: C[C@H](CO)N1C[C@H](C)[C@@H](CN(C)CC2CCCCC2)Oc2c(NS(=O)(=O)c3cccs3)cccc2C1=O
  VDR inh: -14%
structure: Cc1ccc2nc(/C(C#N)=C\c3ccc(OC(=O)c4cccs4)cc3)[nH]c2c1
  VDR inh: 12%
structure: C=C1CCN([C@@H](Cc2ccccc2)C(=O)NCCCc2ccccc2)S(=O)(=O)c2ccccc21
  VDR inh: -13%
structure: CCN(CC)c1ccc(C2C(C(=O)OCCOC)=C(C)NC3=C2C(=O)CC(C)(C)C3)cc1 (stereo not drawn)
  VDR inh: 14%
structure: CCCCn1nnnc1SCC(=O)N(CC)CC
  VDR inh: -1%
structure: c1ccc(CNc2cc(-c3ccoc3)ncn2)cc1
  VDR inh: 13µM*
structure: Cc1ccc(C(=O)Nc2sc(Cc3ccc4c(c3)OCO4)c(C)c2C(N)=O)cc1
  VDR inh: -14%
structure: COc1cc2ccccc2cc1C(=O)N1CCOCC1
  VDR inh: ?
structure: CC(C)[C@H](N[C@@H](C)c1ccccc1)c1c(O)ccc2ccccc12
  VDR inh: 1%

High-throughput results from PubChem.
